Assay outcomes: PubChem, ICCB-Longwood Screening Facility, Harvard Medical School
MbtI inh – MbtI salicylate synthase inhibition. hit rate 0.89% among 100,000. purified MbtI enzyme, fluorescence intensity read-out. inhibition, %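 (about 17 µg/mL by stock and volumes)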. AID 493033;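 active = above 50% in both replicates, above 80% if mildly self-fluorescent; inactive = the rest, strongly fluorescent compounds included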;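 note: 0% = mean of negative and 100% = mean of positive controls; one replicate is shown; some compounds called inactive have numbers as strong as hits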
Target sequence (P9WFX0 whole entry, looked up): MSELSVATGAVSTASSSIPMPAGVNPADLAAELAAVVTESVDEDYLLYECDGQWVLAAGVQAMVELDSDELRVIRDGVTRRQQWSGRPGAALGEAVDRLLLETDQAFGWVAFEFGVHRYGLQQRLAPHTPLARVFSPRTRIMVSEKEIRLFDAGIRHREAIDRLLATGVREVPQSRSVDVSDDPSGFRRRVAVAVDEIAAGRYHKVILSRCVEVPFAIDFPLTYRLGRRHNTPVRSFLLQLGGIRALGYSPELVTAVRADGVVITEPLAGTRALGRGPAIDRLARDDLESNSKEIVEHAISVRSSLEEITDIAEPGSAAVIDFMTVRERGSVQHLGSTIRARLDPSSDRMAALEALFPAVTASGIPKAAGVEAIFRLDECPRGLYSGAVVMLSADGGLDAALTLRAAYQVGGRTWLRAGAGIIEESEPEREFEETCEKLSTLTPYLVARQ
Polio RdRp inh – inhibitors of poliovirus RNA polymerase binding and polymerization. P03300. poliovirus polymerase elongation, fluorescence polarization; active compounds read low. % elongation, % (compound at 16.7 µg/mL). hit rate 0.66% among 150,000; in the data active = % elongation below about 90%; note: some results filed as inactive read as strong as hits
Target sequence (P03300 1749-2209 limits assumed): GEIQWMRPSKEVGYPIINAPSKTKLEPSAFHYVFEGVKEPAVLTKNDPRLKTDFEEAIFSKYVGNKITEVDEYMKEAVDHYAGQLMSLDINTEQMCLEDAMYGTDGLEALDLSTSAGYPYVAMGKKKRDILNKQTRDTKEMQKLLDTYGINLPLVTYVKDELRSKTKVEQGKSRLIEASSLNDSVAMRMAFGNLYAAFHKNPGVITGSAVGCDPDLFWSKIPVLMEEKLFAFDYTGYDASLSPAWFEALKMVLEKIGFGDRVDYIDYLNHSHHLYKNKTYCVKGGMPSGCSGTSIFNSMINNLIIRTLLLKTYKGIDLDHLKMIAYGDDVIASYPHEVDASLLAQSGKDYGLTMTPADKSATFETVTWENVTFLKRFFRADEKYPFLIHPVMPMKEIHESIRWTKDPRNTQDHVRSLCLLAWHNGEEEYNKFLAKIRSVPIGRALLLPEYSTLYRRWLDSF
MenB inh – inhibitors of Mycobacterium tuberculosis MenB enzyme; P9WNP5; MenB enzyme assay, absorbance read-out; some hits fall short of the stated cut; inhibition, %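 (about 12 µg/mL by stock and volumes)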; hit rate 0.43% among 100,000; AID 540299;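 active = mean of two replicates above 30%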;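 note: 0% = no compound and 100% = wells with inactive enzyme; the first replicate is given; strong numbers were not always called active; inactives centre near -10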
Polio RdRp inh intensity – second read-out of Polio RdRp inh, no call of its own (marks repeat the call); % elongation; measured here: total intensity read-out; formula for this scale not given here;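 total fluorescence in place of polarization; lower means less elongation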
The depositor's hits bear a star; · = no result given.

smiles,MbtI inh,Polio RdRp inh,Polio RdRp inh intensity,MenB inh
Cc1cc(C)cc(OC(=O)c2ccc(Oc3cc(Cl)cc(Cl)c3)o2)c1,-6,104,108,-2
C/C(=N\Nc1nnc(C)c(=O)[nH]1)C(=O)O,-8,106,102,-4
CN1C(=O)/C(=C2\SC(=S)N(C)C2=O)SC1=S,12,99,98,-15
Cc1cc(-n2c(C)cc(C(=O)COC(=O)/C=C/c3ccccc3)c2C)no1,11,100,100,-53
C=CCN1C(=O)/C(=C/c2ccc(OCC#N)c(OC)c2)SC1=S,1,105,100,-32
O=C(CCCn1c(=O)c2cccn2c2ccccc21)NCc1ccccc1,-22,103,101,-24
COC(=O)c1ccc(NC(=O)CSc2nnc(Cn3c(=O)sc4ccccc43)n2C)cc1,4,100,103,-17
CCc1ccc(Nc2c3c(nc4ccccc24)CCCC3)cc1,18,97,100,-16
CCn1cc2nc(SCC(=O)N3CCCC3)n(Cc3ccc(C)cc3)c(=O)c2n1,-20,99,103,7
CC(C)COC(=O)C(C)Oc1ccc2c(=O)c(-c3ccccc3)coc2c1 (configuration not stated),4,102,104,-19
O=C(COC(=O)C1CC(=O)N(Cc2ccccc2)C1)Nc1ccc2c(c1)OCO2 (configuration not stated),-3,100,121,-9
CC(C)(C(N)=O)/[N+]([O-])=C\c1ccccc1,14,99,103,-18
CC1(C)CC(=O)C(C2C3=C(CC(C)(C)CC3=O)Oc3ccccc32)=C(O)C1 (configuration not stated),16,102,99,-31
Cc1cc(C)c2c(-n3cccc3)c(C(=O)NC3=NCCS3)sc2n1,-1,145,148,-1
O=C(COC(=O)c1ccc(S(=O)(=O)N2CCCCC2)cc1)NC1CCCCC1,1,97,101,-13
c1ccc(CN2CN(Cc3ccccc3)c3nc4ccccc4n3C2)cc1,-13,103,107,-17
CNC(=O)c1cc2c(=O)n3cccc(C)c3nc2n1C,-46,97,108,-10
CC1(N)CCS(=O)(=O)C1 (configuration not stated),-15,99,102,7
COc1ccccc1CNC(=O)CSc1ccccc1,-10,101,97,·
CN1CCN(C(=O)c2ccc(-c3ccccc3)cc2)CC1,-10,102,101,-30
Nn1c(Nc2ccccc2)nc2sc3c(c2c1=O)CCCC3,23,106,103,-6
Cc1noc(C)c1CSc1ccccc1C(=O)NC(C)c1ccc(-n2ccnc2)cc1 (configuration not stated),99*,98,104,5
CNC(=O)Nc1ccc(Cl)cc1,15,105,100,2
CN(C)c1cc(NC(=O)Nc2ccccc2)c2ccccc2n1,92,95,92,-21
Cc1nc2c(cc(OCc3c(C)noc3C)c3ccsc32)s1,-2,102,109,13
Cc1cc(=O)c2cc(Cl)ccc2s1,26,104,104,-18
C[C@]12CCC(=O)C=C1CCC1C2CC[C@@]2(C)C1CC[C@@]2(O)CC#N (some centres not stated),-16,103,101,·
CC(C)C(NS(=O)(=O)c1cccs1)C(=O)NCc1ccccc1F (configuration not stated),3,101,98,-22
CCN(Cc1ccccc1)C(=O)C1CCN(Cc2ccc(SC)cc2)CC1,·,101,109,6
CC1=C(C(=O)Nc2cc(Cl)ccc2C(=O)NCc2ccc(OC(C)C)cc2)SCCO1,-4,99,101,-7
COC(=O)c1ccc(CCl)o1,-4,101,97,·
CCCc1nc2ccccc2n1C(C)C(=O)O (configuration not stated),-6,104,101,-9
CCSc1nc2ccccc2c(=O)n1C1CCOC(C)(C)C1 (configuration not stated),5,100,104,-12
COc1ccc(Cl)cc1NC(=O)CN(C)Cc1nc2ccsc2c(=O)[nH]1,3,102,104,-36
COc1ccc(OC)c(S(N)(=O)=O)c1,2,101,101,-5
COC(=O)c1ccccc1NC(=O)/C=C/c1ccc(C)o1,21,104,101,-9
COc1cc(OC)cc(-c2cc(NC(C)=O)n[nH]2)c1,2,102,103,8
C[C@H]1O[C@@H](O[C@H]2[C@@H](O)C[C@H](O[C@H]3[C@@H](O)C[C@H](O[C@H]4CC[C@@]5(C)[C@H](CC[C@@H]6[C@@H]5C[C@@H](O)[C@]5(C)[C@@H](C7=CC(=O)OC7)CC[C@]65O)C4)O[C@@H]3C)O[C@@H]2C)C[C@H](O)[C@@H]1O,-2,100,103,3
O=C(O)c1cnc2ccccn2c1=O,90,102,100,27*
CCN(CC)S(=O)(=O)c1ccc(Nc2ccc(OC)cc2OC)nc1,4,101,102,1

One compound at a time, from the list above. Order of values: MbtI inh, Polio RdRp inh, Polio RdRp inh intensity, MenB inh
Entry for `CCN(CC)S(=O)(=O)c1ccc(Nc2ccc(OC)cc2OC)nc1` : 4, 101, 102, 1
Entry for `COc1ccc(OC)c(S(N)(=O)=O)c1` : 2, 101, 101, -5
Entry for `O=C(O)c1cnc2ccccn2c1=O` : 90, 102, 100, 27*
Entry for `CCSc1nc2ccccc2c(=O)n1C1CCOC(C)(C)C1` (configuration not stated) : 5, 100, 104, -12

(more compounds)
smiles,MbtI inh,Polio RdRp inh,Polio RdRp inh intensity,MenB inh
CCN(CC)C(=O)C1CCCN(C2=NS(=O)(=O)c3ccccc32)C1 (configuration not stated),-3,106,104,-31
CCOc1ccc(N/C(N)=N/c2nc(C)cc(C(F)(F)F)n2)cc1,1,100,101,-2
Cc1ccccc1Cn1c(=O)n(CCCS(=O)(=O)C2CCCCC2)c(=O)c2ccccc21,1,102,98,-6
O=C(Nc1ccccc1O)c1ccccn1,-14,101,99,-23
O=C(NCc1ccc2c(c1)OCO2)NC12CC3CC(CC(C3)C1)C2,2,102,102,22
CC(NC(=O)c1ccc(F)cc1)C(=O)O (configuration not stated),49,102,103,38*
CC(C)(C)NP(C)(=O)C(C)(C)C (configuration not stated),-7,99,100,-28
Cc1nc2ccccc2n1CCNC(=O)c1ccc(S(=O)(=O)N(C)C)cc1,-1,106,113,-9
C=CCNC(=O)Nc1ccc2oc(C)nc2c1,1,99,102,10
Cc1ccc(-n2[nH]c(=O)c(N=O)c2O)cc1C,17,78*,75*,-28
O=C(NC1CCCCC1)C1CCN(S(=O)(=O)c2ccccc2)CC1,-7,104,101,-18
O=C(NNc1nc2c(F)cccc2s1)c1nc2ccccc2s1,-6,95,155,-29
CC(=O)Nc1ccc(C(=O)NCCN2CCOCC2)cc1,-2,101,101,8
CN1CCN(C(=O)/C(=C/c2cn(C)c3ccccc23)NC(=O)c2ccco2)CC1,5,100,102,5
O=C(CSc1ncn[nH]1)NCCOc1ccccc1,-6,104,103,3
Cc1ccc(C(=O)Nc2sc3c(c2C(=O)N(C)C)CCCCC3)cc1,·,96,96,-9
O=C(N/N=C/c1ccco1)c1ccccc1,20,105,104,1
O=C1OC(C2OC(=O)c3ccccc32)c2ccccc21 (configuration not stated),·,105,100,-30
O=C(Nc1cccc(N2CCCC2=O)c1)c1ccccc1,·,103,97,1
COC(=O)c1cnc(NNC(=O)Cc2ccccc2)nc1C(F)(F)F,-6,101,103,-9
OCCOC12CC3CC(CC(C3)C1)C2,-6,103,107,·
CSc1nnc(CCNC(=O)c2ccc3c(c2)OCO3)n1C,9,104,102,-38
CCc1ccc(OCC(=O)N2CCOCC2)cc1,·,106,104,-16
Cc1ccc(NC(=O)CC2SC3=NCCN3C2=O)cc1 (configuration not stated),-1,103,101,-47
COC(=O)c1ccc(/C=N/N2C(C)CCCC2C)cc1 (configuration not stated),-6,102,99,-4
CC(NCc1ccccc1)c1cc(Cl)ccc1O (configuration not stated),-19,101,102,-31
CC(C(=O)N1CCN(c2ccccn2)CC1)n1ncn2cccc2c1=O (configuration not stated),-26,105,108,-5
O=C(NCCC1=CCCCC1)c1cc(-c2ccccc2)n[nH]1,-14,100,102,-3
CCc1cc2c(COC(=O)c3ccc4c(c3)OCCO4)cc(=O)oc2cc1O,-22,100,97,-13
COc1ccc2c(C)nc(N=C(NC(C)=O)NC(C)=O)nc2c1,24,101,102,17
CC(C)c1ccc(NC2(C#N)C(=O)Nc3ccccc32)cc1 (configuration not stated),·,99,109,-7
CCCN1CCC(NCc2ccc(Br)cc2)CC1,-14,98,105,-1
O=C(O)CSCc1ccc(Cl)c(Cl)c1,4,98,89,-27
Cc1ccc2c(c1)-c1onc(C(=O)N3CCCCC3c3cccnc3)c1CO2 (configuration not stated),-5,101,103,-8
O=C(ON1C(=O)CCC1=O)c1ccccc1,·,80*,89*,3
O=S(=O)(/N=C/c1c(O)ccc2ccccc12)c1ccccc1,27,98,100,-30
CCC(C)(C)n1nnnc1CN(Cc1ccccc1)Cc1cc2cc(OC)ccc2[nH]c1=O,-2,101,98,2
Cc1ccc(NC(=O)c2ccc(F)cc2)c(C)c1,-2,99,95,3
O=C1c2ccccc2-c2onc3c(Cl)cc(NC4CCCCC4)c1c23,·,46,252,-17
O=c1c(O)c(-c2cccs2)oc2ccccc12,5,99,114,-41
O=C(O)c1nonc1NCn1nnc2ccccc21,-10,101,101,-3
CC(C)=C1C(=O)Nc2ccc(S(=O)(=O)N(CC(C)C)CC(C)C)cc21,-9,101,104,-4
O=C(Nc1ccc(N2C(=O)CCC2=O)cc1Cl)C1CCCCC1,-25,104,103,-4
Cc1cnc(C(=O)Nc2nc3ccccc3[nH]2)cn1,-7,97,109,3
O=C(O)CNC(=O)c1cccs1,-3,100,106,·
O=C(CCCN1C(=O)c2ccccc2C1=O)OCc1nc2ccc(Cl)cc2n1CCO,6,112,118,6
CSC1=NSC2=NC(=O)/C(=C\c3cccs3)C(=N)N12,100*,99,101,-61
Cc1cccc(CSc2nnc(-c3c[nH]c4ccccc34)n2C)c1,-3,104,103,-22
CC(C)(C)N(N)C(=S)Nc1cccc(Cl)c1,-11,99,103,-72
O=C(O)CSc1nc2cccnc2s1,5,97,106,3
CCOC(=O)c1c(C)[nH]c(C)c1C(=O)COc1ccc2c(c1)OCO2,-19,103,104,-21
CS(=O)(=O)Cc1ccc(C(=O)Nc2ccccc2C(=O)NC2CC2)cc1,-4,112,126,-5
Cc1onc(-c2ccccc2)c1CNC(=O)Nc1ccc(C(F)(F)F)cc1,-4,102,97,-11
O=c1[nH]c(CN2CC=C(c3ccccc3)CC2)nc2ccccc12,-7,113,128,-18
CC1=CC2CC1C1C(=O)N(c3ccc(C(F)(F)F)cc3)C(=O)C21 (configuration not stated),-7,102,103,-2
Cc1ccc(-c2cc3c(nn2)-c2ccccc2C3=O)cc1,-8,99,102,-45

Overlap with the part before: three compounds, followed by the next part.
smiles,MbtI inh,Polio RdRp inh,Polio RdRp inh intensity,MenB inh
O=c1[nH]c(CN2CC=C(c3ccccc3)CC2)nc2ccccc12,-7,113,128,-18
CC1=CC2CC1C1C(=O)N(c3ccc(C(F)(F)F)cc3)C(=O)C21 (configuration not stated),-7,102,103,-2
Cc1ccc(-c2cc3c(nn2)-c2ccccc2C3=O)cc1,-8,99,102,-45
COc1ccc(NC(=O)CS(=O)CC(=O)Nc2cc(OC)ccc2OC)cc1 (configuration not stated),3,106,100,-49
CC(=O)N1CCc2c([nH]c3ccccc23)C1C (configuration not stated),4,102,101,-11
c1ccc(-n2nnnc2Oc2cccc3cccnc23)cc1,-7,101,108,-35
Cc1ccc(S(=O)(=O)c2ccc(NN)cc2)cc1,-6,101,100,·
c1ccc(CN2CCOC(CNc3nc(-c4cccnc4)nc4ccccc34)C2)cc1 (configuration not stated),-11,102,104,-37
Cc1ccccc1Nc1nc(N)nc(CN(C)Cc2ccc(F)cc2)n1,-8,100,106,5
CC1=NN(c2ccccc2)C(=O)C1(O)C1C(=O)c2ccccc2C1=O (configuration not stated),-3,29*,31*,-166
COc1ccc(C2CC(=O)c3cnc(NCc4ccccc4)nc3C2)cc1 (configuration not stated),-21,100,102,-24
C=CCc1c(C)[nH]n(-c2ccc(C(=O)O)cc2)c1=O,14,98,98,-41
CCn1c(C(=O)N2CCC(C(=O)NCc3ccc(C)cc3)CC2)cc2occc21,3,102,105,1
COc1ccc(-c2c(C)oc3ccc(Cl)cc23)cc1,·,109,114,3
N=C(N)c1ccc(C(N)=O)cc1,-11,108,107,-5
CC(OC(=O)Cc1n[nH]c(=O)c2ccccc12)C(=O)Nc1ccc(Cl)cn1 (configuration not stated),-11,104,104,-42
O=S(=O)(Nc1cccc(Br)c1)c1ccc(Br)s1,14,103,102,-16
O=C(O)c1sccc1-c1ccccc1,3,·,·,-22
COc1ccc(O)c(C(=O)c2cnn(-c3ccc(Cl)cc3)c2)c1,0,105,111,-39
CC(=O)N1CCN(C(=O)c2ccc(-n3c(C)ccc3C)cc2)CC1,-9,102,106,-2
O=C(Nc1ccc(Cl)cc1)C1=NS(=O)(=O)c2ccccc2N1,-7,101,103,-19
O=C(NC1CCN(C(=O)Nc2ccccc2C(F)(F)F)CC1)c1ccco1,-8,102,100,3
CC1=CC(C)(C)Nc2ccc(OCC(=O)N3c4ccccc4Sc4ccccc43)cc21,31,102,107,-26
CCOC(=O)N1CCN(CCC(=O)Nc2cccc(Cl)c2C)CC1,-8,100,109,-13
Cc1csc(SCc2c(C(=O)Oc3ccc(-n4cnnn4)cc3)oc3ccccc23)n1,3,101,108,-26
